MITF inhib: blocks MITF activity | TRPM1 promoter luciferase, luminescence, 24 h | inhibition, % (test concentration not listed) | 37,000 compounds, 0.28% hits | AID 2240;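 active means most replicates at 85% or more, or half of them and the mean; inconclusive means half reach 85% but not the mean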;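 further: human melanocyte line stably carrying TRPM1 promoter luciferase reporter; 0% = vehicle wells and 100% = a positive control; the first replicate is given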
PD-1 reversal: reversal of PD-1 mediated T-cell inhibition; activation, % (test concentration not listed); 29,000 tested, under 10 active; primary human CD4 T cells, PD-L1 beads, CellTiter-Glo 96 h; AID 2316;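 active means replicate mean of 50% or more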;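 further: 0% = median vehicle wells and 100% = positive control; 100 nL library stock added to about 50 µL; numbers are from one replicate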
Shh pathway inh: Sonic Hedgehog pathway inhibition | inhibition, % (test concentration not listed) | Shh-LIGHT2 Gli-luciferase reporter, 30 h | 22,000 compounds, 2.1% hits;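 active means replicate mean of 65% or more; inconclusive means mean lower but half the replicates past it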;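 further: pathway switched on by Shh-conditioned medium diluted 1 in 25 in low serum; 100 nL library stock added to about 40 µL; 0% = median of neutral wells and 100% = positive control level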
YB-1 expression: YB-1 expression inhibition; U2OS, qRT-PCR YB-1 vs CDIP delta delta Cp, 16 h; stronger effect = higher value; zero = DMSO, each unit about twofold; delta delta Cp (YB-1 minus CDIP) (no concentration beside the values); 30,000 compounds, 0.37% hits; AID 434959;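 active means delta delta Cp rounded down to an integer at or above 3, about 3 SD of DMSO wells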;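 further: higher means less YB-1 transcript or more CDIP transcript relative to DMSO; stock transfer was 100 nL into about 100 µL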
* = called active by the depositor; ? = inconclusive; nt = not tested or not shown. An excerpt (hit frequency here may not be typical).

structure,YB-1 expression,Shh pathway inh,PD-1 reversal,MITF inhib
Cc1noc(C)c1S(=O)(=O)N(C)C[C@H]1Oc2ccc(NC(=O)Nc3ccccc3)cc2CC(=O)N([C@H](C)CO)C[C@H]1C,-0.0152,-25.7,-0.5,-7.8
CNC[C@@H]1Oc2c(NC(=O)c3cc(C)nn3C)cccc2C(=O)N([C@H](C)CO)C[C@@H]1C,-0.195,23.2,0.3,-2.0
C[C@@H]1CN([C@@H](C)CO)C(=O)c2cc(NC(=O)Nc3ccc(F)cc3)ccc2O[C@H]1CN(C)CC1CCCCC1,0.271,-5.6,0.0,-7.1
C[C@H]1CN([C@@H](C)CO)C(=O)Cc2cc(NS(C)(=O)=O)ccc2O[C@@H]1CN(C)S(=O)(=O)c1ccc(Cl)cc1,0.259,7.2,1.5,-0.2
C[C@H](CO)N1C[C@H](C)[C@H](CN(C)Cc2ccc(C(F)(F)F)cc2)Oc2c(NC(=O)NC3CCCCC3)cccc2C1=O,0.135,-11.1,-2.9,14.1
COc1ccccc1NC(=O)Cn1cnc2sc(-c3ccccc3)cc2c1=O,nt,nt,-0.8,4.4
O=c1c2ccccc2nc(-c2ccc(Cl)cc2Cl)n1CCCOc1ccccc1[N+](=O)[O-],nt,nt,-0.8,7.9
C[C@@H]1CCCCO[C@@H](CN(C)C(=O)CCCN(C)C)[C@@H](C)CN([C@H](C)CO)C(=O)c2cc(NC(=O)Nc3cccc4ccccc34)ccc2O1,0.213,25.9,1.8,-13.0
Cc1noc(C)c1NC(=O)Nc1ccc2c(c1)C(=O)N([C@@H](C)CO)C[C@H](C)[C@@H](CN(C)Cc1ccncc1)O2,0.301,nt,-1.2,-8.2
C[C@H](CO)N1C[C@H](C)[C@H](CN(C)C(=O)Nc2ccc(F)cc2)Oc2c(cccc2N(C)C)C1=O,-0.43,3.7,nt,-2.9
C[C@@H]1CCCCO[C@H](CN(C)S(=O)(=O)c2ccccc2)[C@@H](C)CN([C@H](C)CO)C(=O)c2cc(NC(=O)Nc3ccc4c(c3)OCO4)ccc2O1,0.18,nt,-0.4,-13.9
C[C@H]1CN([C@@H](C)CO)C(=O)Cc2cc(NC(=O)Nc3ccc(F)cc3)ccc2O[C@@H]1CN(C)C(=O)Nc1ccc(F)cc1,0.478,-13.5,0.7,-0.4
CCOC(=O)C1CCN(C(c2cccc(Cl)c2)c2c(NC(C)=O)sc3c2CCCC3)CC1 (centres undefined),-0.287,20.3,-0.2,23.8
COC(=O)c1ccccc1NC(=O)Cn1nc([N+](=O)[O-])c(Br)c1C,nt,nt,-1.0,-1.3
C[C@@H]1CN([C@@H](C)CO)C(=O)c2cccc(NS(=O)(=O)c3cccs3)c2O[C@H]1CN(C)CC1CCCCC1,0.0319,-12.4,2.5,1.6
C[C@@H]1CCCCO[C@H](CN(C)S(=O)(=O)c2cn(C)cn2)[C@@H](C)CN([C@H](C)CO)C(=O)c2cc(NC(=O)CCC(F)(F)F)ccc2O1,-0.0307,nt,nt,-13.7
Oc1ccccc1CNCc1ccccn1,-0.177,nt,-3.3,-4.3
Cc1noc(C)c1NC(=O)Nc1ccc2c(c1)CC(=O)N([C@@H](C)CO)C[C@@H](C)[C@@H](CN(C)Cc1ccncc1)O2,0.0527,-3.9,-0.7,-2.8
C[C@@H]1CCCCO[C@@H](CN(C)C(=O)NC2CCCCC2)[C@@H](C)CN([C@H](C)CO)C(=O)c2cc(NS(=O)(=O)c3cccs3)ccc2O1,-0.247,10.9,-1.6,-0.7
C[C@H]1CN([C@@H](C)CO)C(=O)Cc2cc(NC(=O)Cc3ccccc3)ccc2O[C@H]1CN(C)Cc1ccncc1,-0.119,-31.3,-1.4,-9.9
O=C(O)c1cccc(CSc2nnc(-c3ccco3)o2)c1,nt,nt,2.0,19.9
COC(=O)c1c(NC(=O)CN(c2cccc(Br)c2)S(C)(=O)=O)sc2c1CCCC2,nt,nt,0.0,1.8
C[C@H]1CN([C@@H](C)CO)C(=O)c2cc(NC(=O)Nc3ccc(F)cc3)ccc2O[C@H]1CN(C)S(=O)(=O)c1ccc(Cl)cc1,0.109,nt,-1.4,-9.6
Cc1ccc(S(=O)(=O)Nc2ccc3c(c2)C(=O)N([C@@H](C)CO)C[C@@H](C)[C@@H](CN(C)Cc2ccc(-c4ccccc4)cc2)O3)cc1,-0.208,-33.2,-0.6,-5.7
C[C@@H]1CN([C@@H](C)CO)C(=O)c2cccc(NC(=O)c3cnccn3)c2O[C@@H]1CN(C)C(=O)NC1CCCCC1,-0.506,3.7,0.4,-6.9
C[C@H](CO)N1C[C@H](C)[C@@H](CN(C)Cc2ccc(-c3ccccc3)cc2)Oc2c(NC(=O)C3CCOCC3)cccc2C1=O,0.262,13.3,1.5,0.2
C[C@H]1CN([C@@H](C)CO)C(=O)Cc2cc(NC(=O)Cc3ccccc3)ccc2O[C@H]1CN(C)S(=O)(=O)c1ccc(F)cc1,-0.155,-8.7,-0.4,9.1
CC(C)C1=CCC(C)/C(=C\c2ccc(Cl)cc2)C1=O (centres undefined),-0.499,nt,0.6,-27.1
CC(C)NC(=O)Nc1ccc2c(c1)CC(=O)N([C@@H](C)CO)C[C@H](C)[C@H](CN(C)C(=O)Nc1ccccc1)O2,-0.272,-27.5,-0.9,-5.9
C[C@H](CO)N1C[C@H](C)[C@H](CN(C)S(=O)(=O)c2ccc(Cl)cc2)Oc2ccc(NC(=O)Cc3cn(C)c4ccccc34)cc2C1=O,-0.00391,-8.6,-2.7,20.1
C[C@@H]1CN([C@H](C)CO)C(=O)Cc2cc(NC(=O)Cc3cn(C)c4ccccc34)ccc2O[C@@H]1CN(C)CC1CC1,-0.349,nt,0.1,2.0
Cc1noc(C)c1NC(=O)Nc1cccc2c1O[C@@H](CN(C)CC1CCCCC1)[C@H](C)CN([C@H](C)CO)C2=O,-0.245,-11.7,nt,-3.2
C[C@@H]1CN([C@@H](C)CO)C(=O)c2cccc(NC(=O)c3cnccn3)c2O[C@H]1CN(C)S(=O)(=O)c1ccc(F)cc1,0.408,8.0,nt,-3.0
C[C@@H]1CN([C@@H](C)CO)C(=O)c2cccc(NS(=O)(=O)c3cn(C)cn3)c2O[C@@H]1CN(C)CC1CCCCC1,0.101,10.7,0.9,-11.6
C[C@H]1CN([C@@H](C)CO)C(=O)c2cccc(NC(=O)Nc3cccc4ccccc34)c2O[C@H]1CN(C)S(=O)(=O)c1ccccc1,0.0733,19.0,1.7,-3.5
COc1ccc(C(=O)Nc2ccc(C(=O)OCc3cccc([N+](=O)[O-])c3)cc2)cc1,nt,nt,0.2,-43.0
CN(CCOC(=O)Nc1cccc(Cl)c1)c1ccc(C#N)cn1,0.169,19.4,4.5,4.8
CC1CC2OC(C)(C)OC2C(OC(=O)c2ccccc2)O1 (centres undefined),-0.878,20.2,0.6,-6.1
CC(C)NC(=O)Nc1ccc2c(c1)CC(=O)N([C@H](C)CO)C[C@@H](C)[C@H](CN(C)Cc1ccncc1)O2,nt,-15.8,nt,-11.7
C[C@@H]1CN([C@H](C)CO)C(=O)c2cc(NS(=O)(=O)c3ccccc3)ccc2O[C@@H]1CN(C)Cc1ccncc1,-0.0641,nt,-0.3,-1.2
CC1OC(OCC2OC(Oc3cc(O)c4c(=O)c(-c5ccc(O)cc5)coc4c3)C(O)C(O)C2O)C(O)C(O)C1OC1OC(CO)C(O)C(O)C1O (centres undefined),-0.07,-0.8,0.7,6.6
C[C@@H]1CCCCO[C@H](CN(C)C)[C@@H](C)CN([C@H](C)CO)C(=O)c2cc(NC(=O)c3ccccc3)ccc2O1,-0.121,-18.2,0.5,-0.3
COc1cccc(-c2c(C(N)=O)nnc3cc(-c4ccccc4)nn23)c1,-0.212,-1.9,1.1,-16.6
C[C@H]1CN([C@@H](C)CO)C(=O)c2cc(NS(=O)(=O)c3ccccc3)ccc2O[C@@H]1CN(C)S(=O)(=O)c1cn(C)cn1,-0.09,nt,-0.1,4.3
C[C@H](CO)N1C[C@H](C)[C@@H](CN(C)Cc2ccc(C(=O)Nc3ccccc3N)cc2)Oc2c(NC(=O)c3nc4ccccc4s3)cccc2C1=O,0.234,nt,-1.1,22.2
C[C@@H]1CN([C@H](C)CO)C(=O)c2cccc(NC(=O)c3ccncc3)c2O[C@@H]1CN(C)C(=O)Nc1cccc2ccccc12,0.0364,-31.8,0.2,5.3
C[C@@H]1CN([C@@H](C)CO)C(=O)c2cccc(NS(=O)(=O)c3ccc(F)cc3)c2O[C@H]1CN(C)CC1CC1,0.284,-24.5,0.7,-9.5
CNC[C@@H]1Oc2ccc(NC(=O)Nc3ccc4c(c3)OCO4)cc2CC(=O)N([C@H](C)CO)C[C@H]1C,-0.282,?,0.1,-1.1
C[C@@H]1CN([C@@H](C)CO)C(=O)c2cc(NC(=O)Cn3cnnn3)ccc2O[C@@H]1CN(C)S(C)(=O)=O,-0.263,-25.8,1.5,-7.8
C[C@H]1CN([C@@H](C)CO)C(=O)c2cccc(NS(C)(=O)=O)c2O[C@H]1CN(C)Cc1ccc(C(F)(F)F)cc1,0.154,34.7,-2.0,-11.1

Continuation:
structure,YB-1 expression,Shh pathway inh,PD-1 reversal,MITF inhib
CC(=O)OC(COc1cccc2ccccc12)Cn1cnc2ccccc21 (centres undefined),nt,nt,-3.0,45.8
CCC(=O)N1CCNC(=O)C1CC(=O)Nc1ccc(C)c(Cl)c1 (centres undefined),-0.475,4.9,0.5,0.4
C[C@@H]1CN([C@H](C)CO)C(=O)c2cccc(NC(=O)C3CCOCC3)c2O[C@H]1CN(C)C(=O)NC1CCCCC1,-0.0296,23.3,1.6,1.8
C[C@@H]1CN([C@@H](C)CO)C(=O)c2cc(NC(=O)NC3CCCCC3)ccc2O[C@H]1CN(C)S(=O)(=O)c1ccc(Cl)cc1,0.101,nt,0.2,-4.3
C[C@H]1CN([C@@H](C)CO)C(=O)Cc2cc(N(C)C)ccc2O[C@@H]1CN(C)S(C)(=O)=O,-0.476,-62.6,1.3,-1.6
COc1ccc(-c2nc3cc(C(C)C)ccc3o2)cc1NC(=O)COc1ccccc1C,nt,nt,0.0,-20.5
C[C@H]1CN([C@@H](C)CO)C(=O)c2cccc(NC(=O)Nc3ccccc3)c2O[C@@H]1CN(C)C(=O)NC1CCCCC1,-0.155,-8.7,0.0,-9.8
c1ccc(C(c2ccccc2)N2CCN(CCCc3c[nH]c4ccccc34)CC2)cc1,-0.107,-12.9,-1.1,4.1
Cc1ccc(C(=O)O)cc1S(=O)(=O)N(CCO)CCO,nt,nt,2.8,-5.8
O=C(NCCN1CCCCC1)Nc1cccc(Cl)c1,-5.11,20.6,0.5,-11.8
Cc1cc(OCC(=O)Nc2cccc(NC(=O)c3cccc(Cl)c3)c2)ccc1Cl,nt,nt,1.1,44.4
COc1ccc(NC(=O)c2ccccc2NC(=O)COc2ccc([N+](=O)[O-])cc2)cc1,nt,nt,4.5,-14.0
C[C@H]1CN([C@@H](C)CO)C(=O)c2cc(NC(=O)Cc3ccccc3)ccc2O[C@@H]1CN(C)C,0.228,nt,nt,3.2
C[C@@H]1CN([C@@H](C)CO)C(=O)c2cccc(NC(=O)c3ccc(-c4nccs4)cc3)c2O[C@@H]1CN(C)C,0.174,-46.9,2.0,-17.1
C[C@H](CO)N1C[C@H](C)[C@H](CN(C)Cc2ccc(Oc3ccccc3)cc2)Oc2c(NS(=O)(=O)c3ccccc3)cccc2C1=O,-0.459,29.1,-3.1,5.0
COc1ccc(S(=O)(=O)Nc2ccc3c(c2)CC(=O)N([C@H](C)CO)C[C@@H](C)[C@@H](CN(C)C)O3)cc1,-0.494,nt,nt,-1.9
COc1ccc(CN(C)C[C@@H]2Oc3c(NC(=O)Nc4ccc5c(c4)OCO5)cccc3C(=O)N([C@@H](C)CO)C[C@H]2C)cc1,0.108,-9.9,nt,14.6
Cc1noc(C)c1NC(=O)Nc1ccc2c(c1)C(=O)N([C@@H](C)CO)C[C@H](C)[C@H](CN(C)S(=O)(=O)c1ccc(F)cc1)O2,-0.0154,nt,6.7,-13.4

Complete entries as entered above. Values in the order: YB-1 expression | Shh pathway inh | PD-1 reversal | MITF inhib
COc1ccc(-c2nc3cc(C(C)C)ccc3o2)cc1NC(=O)COc1ccccc1C in the list: nt | nt | 0.0 | -20.5
Cc1ccc(C(=O)O)cc1S(=O)(=O)N(CCO)CCO in the list: nt | nt | 2.8 | -5.8
COc1ccc(S(=O)(=O)Nc2ccc3c(c2)CC(=O)N([C@H](C)CO)C[C@@H](C)[C@@H](CN(C)C)O3)cc1 in the list: -0.494 | nt | nt | -1.9
CCC(=O)N1CCNC(=O)C1CC(=O)Nc1ccc(C)c(Cl)c1 (centres undefined) in the list: -0.475 | 4.9 | 0.5 | 0.4

From PubChem BioAssay
